Sfp inh = Sfp phosphopantetheinyl transferase inhibition. Q9F4F7. Biochemical Sfp PPTase activity, qHTS. Potency, µM, without a hit: max response, negative = inhibition, actives largely listed as inhibitors. actives 3.5% (n = 310,000); active means well fitted inhibition curve with a large enough effect; inconclusive means small, poorly fitted or top-dose-only effect, or another doubt; inactive means no such curve, though single readings can be large or run the other way;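 further: the enzyme is Sfp with the accession as filed and its product quenches rhodamine fluorescence; potency means the concentration at half of the fitted maximal effect; 0% = enzyme reaction without inhibitor and -100% = no enzyme wells; top concentration of the series not given in the record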
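Reaction rates are the 30-min fluorescence difference (ex 525, em 598 nm) in wells containing 15 nM Sfp, 5 uM rhodamine-CoA and 12.5 uM BHQ-2-YbbR at pH 7.6 with 10 mM MgCl2.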
TRPV1 PAM = enhances activation of the human vanilloid receptor TRPV1 | potentiation, % at 8.33 µM | actives 0.02% (n = 320,000) | TRPV1-expressing cells, Fluo-8 calcium influx, capsaicin EC20 potentiation; host cell line not named in the record; control for the full effect not named in the record; active means potentiation above 80%; inconclusive means 30% to 80%; inactive means below 30%; further: 0% is about no effect
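Cells expressing TRPV1 were dye-loaded with Fluo-8 and read kinetically: 10 s baseline, 3 min after compound (agonist portion), then 2 min after EC20 capsaicin (allosteric enhancer portion). Calcium-bound dye fluorescence at 480/520 nm.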
D2 potentiator = human D2 receptor positive allosteric modulation | actives 0.23% (n = 360,000) | AID 624464 | potentiation, % (test concentration not listed) | DiscoveRx D2 beta-arrestin cells, luminescence, 90 min; 100% = 57 uM dopamine signal; active = potentiation of 50% or more; inconclusive = 30% to 50%; inactive = 30% or less;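 further: compound concentration not given in the record; tested on top of an EC20 dose of dopamine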
Target sequence (P14416 whole entry, looked up): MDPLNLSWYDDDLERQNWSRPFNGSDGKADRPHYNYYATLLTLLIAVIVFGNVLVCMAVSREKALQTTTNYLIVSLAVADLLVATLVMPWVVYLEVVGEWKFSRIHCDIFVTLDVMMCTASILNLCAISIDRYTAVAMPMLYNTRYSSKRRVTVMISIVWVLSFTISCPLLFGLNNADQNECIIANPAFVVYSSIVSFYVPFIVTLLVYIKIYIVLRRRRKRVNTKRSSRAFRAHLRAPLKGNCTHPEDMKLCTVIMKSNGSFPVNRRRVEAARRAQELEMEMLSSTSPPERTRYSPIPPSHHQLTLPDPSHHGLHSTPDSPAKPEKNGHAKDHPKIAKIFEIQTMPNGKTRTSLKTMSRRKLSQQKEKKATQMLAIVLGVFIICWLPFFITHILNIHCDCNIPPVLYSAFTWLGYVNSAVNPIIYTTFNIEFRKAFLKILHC
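PathHunter beta-arrestin assay in DiscoveRx D2 cells. Compounds were added with an EC20 of dopamine (50 nM final) for 90 min at 37 deg C. Luminescence was read 1 h after detection reagent, with 57 uM dopamine as the EC100 control.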
ClpP mod = qHTS Assay for Activators of ClpP. purified B. subtilis ClpP, FRET peptide cleavage, 20 min. actives 1.9% (n = 340,000). Potency, µM (top dose mostly 57.5 µM), without a hit: at the highest dose activity change, negative = active. ATP-dependent Clp protease proteolytic subunit (Bacillus subtilis (strain 168)), P80244; active = well fitted falling curve with a large enough effect; inconclusive = small, poorly fitted or top-dose-only effect; inactive = no such curve, though single readings can be large or run the other way; further: potency means the concentration at half of the fitted maximal effect; the source files actives as falling curves though it sought activators and does not explain the sign; nearly all actives have a fitted effect of over 65% in size; many hits overshoot -100%
Target sequence (P80244 whole entry, looked up): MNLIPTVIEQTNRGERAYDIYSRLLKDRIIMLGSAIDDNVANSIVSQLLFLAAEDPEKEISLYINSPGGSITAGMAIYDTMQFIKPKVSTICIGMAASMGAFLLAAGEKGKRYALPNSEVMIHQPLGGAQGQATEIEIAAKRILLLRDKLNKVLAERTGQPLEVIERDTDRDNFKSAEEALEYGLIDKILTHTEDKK
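FRET quenching reversal measured ClpP activation: 10 microg/mL B. subtilis ClpP at pH 8 with the FRET-FV decapeptide, read at 430 nm after 320 nm excitation. The 20-min minus 0-min signal was scaled between DMSO/no-enzyme wells and ADEP (5.8 microM final).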
gsp ag = gsp mutant agonism; gsp mutant cells, cAMP HTRF, 30 min; control for the full effect not named in the record; Potency, µM (titrated, usually from 76.9 µM), without a hit: at the top dose activation (cAMP increase), actives largely listed as activators; actives 0.13% (n = 340,000); AID 624287; active = well fitted activation curve with a large enough effect; inconclusive = small, poorly fitted or top-dose-only effect, or another doubt; inactive = no such curve, though single readings can be large or run the other way; cell line not stated here;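 further: phosphodiesterase inhibitor Ro 20-1724 added with compounds to block cAMP breakdown; potency means the concentration at half of the fitted maximal effect; nearly all actives have a fitted effect of over 60% in size; about a fifth of the inactives were tested at one dose only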
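Cells stably selected in G418 were plated at 2000/well, grown 16-24 hr, then given compounds in DMSO with the PDE inhibitor […] (300 uM solution added) for 30 min at 37C; cAMP was read by HTRF.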
Menin MLL FP FL = displaces fluorescein MLL peptide from human menin; Fluorescence polarization, fluorescein-MLL peptide displacement from menin; FP activity change, % at 61.4 µM; 290,000 tested, under 10 active; AID 1766; inconclusive = falling polarisation curve, or a change in total fluorescence; inactive = total fluorescence flat and polarisation flat or rising; no compound was filed as active; the % refers to the polarisation; negative = inhibition;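 further: % of control where 0% means no effect; inhibitors lower the polarisation; unlabelled MLL peptide was the positive control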
gsp antagonist = antagonizes gsp, the McCune-Albright syndrome mutation; actives 0.4% (n = 340,000); gsp-mutant cells, cAMP HTRF, 30 min; control for the full effect not named in the record; AID 624288; Potency, µM (top dose mostly 76.9 µM), for the others: top-dose activity change, negative = inhibition, most hits filed as inhibitors; active = falling curve of any shape with a large fitted effect; inconclusive = falling curve, mostly with a smaller effect; inactive = flat or rising curve; cell line not stated here;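 further: intracellular cAMP measured with PDE inhibitor Ro 20-1724 present during compound exposure; potency means the concentration at half of the fitted maximal effect; on the % scale 0 is the no-effect control and ±100 the full control effect; nearly all actives have a fitted effect of over 65% in size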
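Cells in G418 medium, seeded 16-24 h, 37C; buffer exchange to DPBS + 1 mM CaCl2, 0.5 mM MgCl2, 0.05% BSA; cpds in DMSO + […] (300 uM stock), 30 min 37C; HTRF cAMP detection.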
Starred values were filed as active, the others as inactive; ? = inconclusive; . = no result given; & = joins results of further samples; [ ] = another dose, or the depositor's remark.

molecule | Menin MLL FP FL | Sfp inh | ClpP mod | gsp antagonist | gsp ag | D2 potentiator | TRPV1 PAM
Cc1ccc(NC(=O)C2=CN3CCS(=O)(=O)N=C3C=C2)cc1 | . | . | -0.6% | 4% | -7%[15.4 µM] | -3 | .
O=C(c1cc2cc(Cl)cc(Cl)c2oc1=O)N1CCOCC1 | 5.2 | 4% | 22µM* | 16% | 0% | -6 | -6
CCS(=O)(=O)c1ccc(NC(=O)c2ccccc2Cl)c(O)c1 | -2.3 | 9% | -1.1% | -27% | -3% | ? | -21
CCOc1ncccc1C(=O)OCC(=O)Nc1ccc2c(c1)CCC2 | . | . | 1.3% | 4% | 16%[15.4 µM] | -10 | .
Cc1ccc(NC(=O)CN(C)CC(=O)Nc2ccccc2-c2ccccc2)cc1 | -1.0 | -20% | . | . | -1%[15.4 µM] | -13 | -4
COc1ccc(NC(=O)Cn2nc([N+](=O)[O-])c(Cl)c2C)cc1OC | 5.6 | 0% | -1.6% | 5% | 5% | -7 | 1
COc1ccccc1NC(=O)COC(=O)/C=C/c1ccc2c(c1)OCO2 | 1.3 | 79µM* | . | -11% | -2% | 1 | 3
Cc1cccc(N2C(=O)CC(N3CCOCC3)C2=O)c1 (stereo not given) | 1.3 | 11% | -4.7% | 16% | 10% | ? | -1
O=C(CCCN1C(=O)/C(=C/c2ccccc2Cl)SC1=S)Nc1ccccn1 | 6.3 | -12% | -1.6% | -23% | 4%[15.4 µM] | 0 | 4
N=c1n(CCO)c2ccccc2n1CCOc1ccccc1 | 1.8 | 17% | -2.4% | 11% | -11% | -15 | -4
CC(C)c1ccc2oc(=O)cc(CN3CCN(c4ccccc4)CC3)c2c1 | 3.1 | -5% | 7.7% | -13%[15.4 µM] | -13% | 3 | -18
Cc1cc(C(=O)Cn2cnc3cc([N+](=O)[O-])ccc3c2=O)c(C)n1CC1CCCO1 (stereo not given) | -3.0 | 0% | . | . | -1%[15.4 µM] | 18 | 4
COc1ccc(OCc2cccc(C(=O)N3CCCC3)c2)cc1 | -2.3 | 0% | 0.4% | -16% | 7% | -14 | -1
CC1CCC(NC(=O)C2CC(=O)N(c3ccc(Cl)cc3)C2)CC1 (stereo not given) | . | -18% | 0.9% | 5% | -12% | 1 | 1
COc1ccc(/C=C/C(=O)OCC(=O)NC2CCCCCCC2)cc1 | . | . | -2.9% | 9% | -8% | -13 | .
O=C(Nc1cccc2ccccc12)c1onc2c1CCCC2 | 2.3 | -1% | 0.9% | 0% | 5% | -11 | -9
CCN(c1ccccc1)S(=O)(=O)c1ccc(Cl)c(NC(=O)COC(=O)c2cc(O)c3ccccc3c2O)c1 | -1.7 | 45µM* | . | . | . | . | 3
COc1ccc(C(CNC(=O)c2cncc(Br)c2)N(C)C)cc1 (stereo not given) | -0.5 | 11% | 0.1% | -10% | -5% | -22 | -5
O=C(NCC(=O)N(Cc1ccccc1)C(C(=O)NC1CCCCC1)c1ccco1)c1ccco1 (stereo not given) | -0.7 | 5% | 1.0% | -11% | -21% | -7 | -10
CC(=O)c1cccc(NC(=O)c2ccco2)c1 | 1.8 | 18% | -2.1% | -5% | -24% | -13 | 13
COc1ccc(N(CC(=O)NCCSc2ccccn2)S(C)(=O)=O)cc1Cl | -0.3 | 2% | 2.3% | 10% | -1% | -6 | 6
O=[N+]([O-])c1ccc(NC(=S)N2CCOCC2)cc1 | -0.7 | 5% | -0.1% | 12% | 18% | -9 | 1
CCOc1ccc(NC(=O)CC(C)S(=O)(=O)c2ccc3c(c2)NC(=O)CO3)cc1 (stereo not given) | 1.0 | -2% | 2.7% | -6% | -21% | 2 | -3
O=C(Nc1cnccn1)Nc1ccccc1F | . | 2% | -6.2% | 10% | ? | -7 | -6
CC1CC(C)C(=NNC(N)=O)C(C(O)CC2CCC(=O)NC2=O)C1 (stereo not given) | . | . | . | -7% | 23% | 0 | .
COc1ccc(NC(=O)c2cccc(N3C(=O)C4C5C=CC(C5)C4C3=O)c2)cc1 (stereo not given) | -0.6 | 15% | 0.9% | -10% | -2% | -2 | -11
CCOC(=O)c1c(C)[nH]c(C(=O)N2CCN(c3ccc(OC)cc3)CC2)c1C | -3.6 | -3% | . | -13% | -5%[15.4 µM] | -8 | -2
CC(NC(=O)CNC(=O)c1ccco1)c1ccc(S(N)(=O)=O)cc1 (stereo not given) | -1.1 | 11% | . | 8% | 4% | -2 | 0
CSc1nnc(-c2sccc2OCc2ccc(C)cc2)n1C | -5.5 | 12% | -0.5% | -22% | -15% | -13 | 16
COc1ccc(Cn2c(=S)[nH]c3cc(C(=O)N4CCN(c5ccccc5)CC4)ccc3c2=O)cc1 | 3.8 | 4% | -0.4% | 15% | -2%[15.4 µM] | -13 | 5
C[C@@H]1ON(C)[C@H]2C[C@H]3c4[nH]c5ccccc5c4CCN3C[C@@H]12 | . | . | -21% | . | 0% | 0 | .
Cc1cc(F)ccc1S(=O)(=O)Nc1ncnc2sccc12 | 1.2 | 16% | . | 2% | 3%[15.4 µM] | -2 | 8
CC(=O)Nc1ccc(/C(C)=N/NC(=O)CN(c2ccccc2Br)S(C)(=O)=O)cc1 | -0.5 | 5% | -1.4% | 3% | -13% | -17 | 2
COc1ccccc1CC(=O)NNC(=O)CN(C)S(=O)(=O)c1ccc(Cl)cc1 | . | . | 1.4% | 0% | 2% | -13 | -10
COc1cccc(CNC(=O)C2CCC(CNc3nc(=S)[nH]c4ccccc34)CC2)c1 (stereo not given) | 4.3 | 6% | . | -13% | -1%[15.4 µM] | -16 | 7
Cc1ccc(NC(=O)CN(C)C(=O)COC(=O)c2oc3ccccc3c2C)cc1 | . | . | -12% | -15% | -6% | -2 | 4
CC(C)(C)OC(=O)N1CCC(NC(=O)c2ncn(Cc3ccccc3)c2C(=O)NC2CCN(C(=O)OC(C)(C)C)CC2)CC1 | . | . | 2.3% | -12% | . | -16 | -11
CN(Cc1ccccn1)Cc1cn(Cc2ccccc2)nc1-c1ccc2c(c1)OCO2 | 2.6 | 9% | . | -3% | -1%[15.4 µM] | -10 | -8
O=C(c1cc2n(n1)C(C(F)(F)F)CC(c1ccco1)N2)N1CCN(c2ccccn2)CC1 (stereo not given) | 1.3 | 13% | ? | -4% | -20% | 13 | -20
COc1ccc(C(=O)NC(=S)Nc2ccc(NC(=O)c3ccco3)cc2)cc1[N+](=O)[O-] | 4.7 | -21% | -1.6% | 16% | ? | 0 | -10
O=C(Nc1ccc(C(=O)N2CCCC2)cc1)c1ccccc1F | -3.9 | 1% | -0.1% | -3% | 14% | 0 | 10
O=C(Nc1ccccc1)Nc1ccc(Br)cc1F | 2.2 | 1% | -3.0% | 7% | -5% | -12 | -13
CCOc1ccc(Cl)cc1/C=N/O | 4.8 | 5% | ? | 6% | -1% | -15 | 4
CCC(C)(C)NC(=O)CN(C(=O)CCC(=O)Nc1cc(C)ccn1)c1ccc2c(c1)OCCO2 | 0.2 | 14% | . | 4% | -11% | -10 | 3
O=C(COC(=O)c1ccncc1)c1ccc(Br)cc1 | -5.9 | 4% | . | 15% | -12%[15.4 µM] | 4 | -12
COc1ccc(C(=O)NC2CCCN(Cc3ccc(Cl)cc3)C2)c(OC)c1 (stereo not given) | 5.7 | 16% | -2.7% | -16% | -15% | -26 | -5
CCSc1ccc([C@@H]2[C@@H]3C(=O)N(CC)C(=O)[C@@H]3[C@]3(C(=O)OC)CCCN23)cc1 | . | . | -0.9% | -11% | . | -10 | ?
CC(C)c1ccc(NCCC(=O)c2cccs2)cc1 | 0.5 | 1% | -1.0% | 1% | -4% | -5 | 0
O=Cc1cn(-c2ccccc2)nc1-c1ccccn1 | -0.4 | 19% | . | -3% | -10% | -8 | 7
COc1ccc(-c2ccc(CN3C(C(C)C)C(=O)N(Cc4cn(CCC5OCCO5)nn4)CCS3(=O)=O)cc2)cc1 (stereo not given) | . | . | 0.2% | . | 25% | -1 | .
COC(=O)c1cc(OC)c(OC)cc1NC(=S)Nc1cc(Cl)ccc1OC | 2.1 | 14% | -6.6% | -1% | -6% | -11 | -4
Cc1ccc(OCc2nnc(-c3ccc(Cl)cc3)o2)cc1 | . | . | -1.6% | 3% | -10%[15.4 µM] | -9 | .
CC1(C(=O)NCC2CC2)C=CC2(CCCCC2)N1C(=O)c1ccccc1 (stereo not given) | -0.8&-1.0 | 5%&12% | -1.1% | -2% | . | -42 | 24
Cc1ccccc1-n1nnnc1SCC(N)=O | 4.5 | 23% | -4.1% | -9% | 25% | 8 | 0
COc1ccc(OC)c(NC(=O)C2CCN(S(=O)(=O)c3cccs3)CC2)c1 | 1.8 | 1% | 1.0% | 7% | 23% | 2 | -1
O=C(NCCc1ccncc1)Nc1ccc(F)cc1 | -2.2 | 18% | . | 16% | -18%[15.4 µM] | -3 | .
CCN(c1ccccc1)S(=O)(=O)c1ccc(OCC(=O)Nc2cc(C)on2)cc1 | -0.3 | 14% | -0.2% | -3% | -20% | 0 | -3
CCOC(=O)C1=C(C)N=C2SC(C)C(=O)N2C1c1ccc(OC(C)=O)c(OCC)c1 (stereo not given) | -0.6 | 19% | . | . | . | . | -10
CC(=O)c1ccc(NC(=O)Nc2ccc(S(=O)(=O)N3CCCC3)cc2)cc1 | . | -20% | -1.4% | ? | 22% | 21 | 0
C=CCc1ccc(OCCOCCOc2ccc(C)cc2[N+](=O)[O-])c(OC)c1 | 2.8 | 11% | -1.1% | -8% | -3% | -15 | 15
CCOC(=O)CSC1=C(C#N)C(c2ccc(OC)cc2)C2=C(CC(C)(C)CC2=O)N1 (stereo not given) | 4.1 | 35µM* | -17% | -27% | ? | 1 | -4

Compound activity as filed in PubChem BioAssay.
